From PubChem BioAssay
VDR inh: inhibitors of human vitamin D receptor. VDR-SRC2-3 peptide fluorescence polarization, 2 h. Potency, µM, without a hit: max response, negative = inhibition, hits mostly inhibitors. 0.93% of 400,000 active; active means well fitted inhibition curve with a large enough effect; inconclusive means small, poorly fitted or top-dose-only effect, or another doubt; inactive means no such curve, though single readings can be large or run the other way; further: series mostly up to about 120 µM
Target sequence (P11473 whole entry, looked up): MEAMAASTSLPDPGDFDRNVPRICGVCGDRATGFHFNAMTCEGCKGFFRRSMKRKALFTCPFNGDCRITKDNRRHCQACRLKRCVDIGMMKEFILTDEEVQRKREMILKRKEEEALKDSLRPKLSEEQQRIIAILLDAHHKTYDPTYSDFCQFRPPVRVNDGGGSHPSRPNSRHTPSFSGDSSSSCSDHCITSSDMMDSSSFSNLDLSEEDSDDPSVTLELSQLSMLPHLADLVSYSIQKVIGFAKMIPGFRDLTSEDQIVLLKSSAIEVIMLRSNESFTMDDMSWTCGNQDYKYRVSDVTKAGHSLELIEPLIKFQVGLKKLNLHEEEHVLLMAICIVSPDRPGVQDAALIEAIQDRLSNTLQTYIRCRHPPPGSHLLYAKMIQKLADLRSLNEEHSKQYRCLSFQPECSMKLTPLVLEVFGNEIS
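The screen uses fluorescence polarization to detect compounds that interfere with recruitment of the SRC2-3 coactivator peptide to VDR; plates are read after 2 h at room temperature.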
An asterisk follows results filed as active; ? = inconclusive; [ ] = another dose, or the depositor's remark. On the % scale 0 is the no-effect control and ±100 the full control effect; potency means the concentration at half of the fitted maximal effect. A portion of the library. The share of hits here may be higher or lower than overall.

Start of the listing, in advance:
canonical_smiles	VDR inh
O=C(CCSCCC(=O)NN=Cc1ccccc1O)NN=Cc1ccccc1O	4%
CCc1ccc(CN2CCC(C(=O)Nc3ccc(Oc4ccccc4)nc3)CC2)o1	-6%
O=C(CCC(=O)Nc1ccccc1)NNC(=O)CCc1ccccc1	9%

The whole of this part, from the start:
canonical_smiles	VDR inh
O=C(CCSCCC(=O)NN=Cc1ccccc1O)NN=Cc1ccccc1O	4%
CCc1ccc(CN2CCC(C(=O)Nc3ccc(Oc4ccccc4)nc3)CC2)o1	-6%
O=C(CCC(=O)Nc1ccccc1)NNC(=O)CCc1ccccc1	9%
CSc1ncccc1C(=O)OCc1nc2ccsc2c(=O)[nH]1	-7%
Cc1c(C2C(C#N)=C(N)OC3=C2C(=O)CCC3)cnn1C (stereo not given)	-6%
Cc1nn(CC(=O)NCc2ccccc2)c(=O)c2cccn12	2%
Cc1ccc(CNc2nc3ccc(Cl)cc3n3cnnc23)cc1	18%
CCN(CC)S(=O)(=O)c1ccc(OCC(=O)NCc2ccco2)cc1	9%
Cc1csc(Nc2ccccc2)[n+]1C	11%
COc1ccc2[nH]c3c(=O)n(CCc4ccccc4)cnc3c2c1	-4%
COc1ccc(C(=O)N/N=C(/C)c2ccc(N3CCCCC3)cc2)cc1	?
COc1ccc(CNC(=O)Cn2c(=O)nc(-c3ccccc3F)c3cc(Cl)ccc32)cc1	4%
S=C(NCCCN(Cc1ccc(Cl)cc1)c1ccc(-c2ccccc2)cn1)NCCCN(Cc1ccc(Cl)cc1)c1ccc(-c2ccccc2)cn1	-17%
COC(=O)CC1C(=O)NCCN1C(=O)c1ccc(Cl)cc1 (stereo not given)	3%
CC(C)(C)C(=O)Nc1cccc(-c2cc(-c3c(Cl)cccc3Cl)no2)c1	2%
CCN(CC)CCCN1C(=O)C(=O)/C(=C(/O)c2c(C)nc3ccccn23)C1c1ccc(C)o1 (stereo not given)	8%
Fc1ccc2nc(N3CCOCC3)sc2c1	-18%
COc1ccccc1OCC(=O)NCC1CCCN(C(=O)c2ccccc2SC)C1 (stereo not given)	?
Cc1ccc(S(=O)(=O)N2CCCCC2)cc1NC(=O)Cn1c(=O)cnc2ccccc21	-8%
Cc1ccccc1NC(=O)CSc1nnc(Cc2ccccc2)c(=O)n1N	-1%
c1cnc(N2CCN(c3cnccn3)CC2)nc1	-19%
Cc1ccc(OCC(=O)N(Cc2ccc(Cl)cc2)Cc2ccco2)cc1C	-3%
COc1ccc(N2CCCC2)c(NC(=O)c2ccc(Br)o2)c1	5%
CCc1c(C)sc2c1CCN(Cc1cccc(F)c1)C2c1ccccc1 (stereo not given)	2%
CCCCCCCCCCCCOC(=O)C[N+](C)(C)C	6%

Grouped by structure: those above with a thiophene ring, fused or not
canonical_smiles	VDR inh
CSc1ncccc1C(=O)OCc1nc2ccsc2c(=O)[nH]1	-7%
CCc1c(C)sc2c1CCN(Cc1cccc(F)c1)C2c1ccccc1 (stereo not given)	2%

(further entries)
canonical_smiles	VDR inh
Cc1[nH]c2ccc(F)cc2c1CCNC(=O)c1cc2cc(Cl)ccc2oc1=O	-3%
O=C(Nc1ccc(Cl)cc1)NC1CCCc2ccccc21 (stereo not given)	4%
Clc1cccc(Cl)c1-c1noc(-c2ccno2)n1	-2%
c1coc(CNc2c3c(nc4ccccc24)CCC3)c1	3%
C=CCOc1ccc(/C=C/C(=O)OCC(=O)NCC2CCCCC2)cc1	-7%
CCC1(CC)Cc2ccccc2-c2nc(NCCO)[nH]c(=O)c21	6%
COC(=O)C1=C(C)NC(=O)CC1c1ccc(F)c(Br)c1 (stereo not given)	-17%
O=C1CCC2(CC1)NC(=O)N(c1ccccc1)N2	2%
CCN(CC(=O)Nc1c(F)cccc1F)C(=O)c1cc2c(cc1Cl)N1CCCCCC1=NS2(=O)=O	-12%
Cc1ccc(C)c(Cn2nnc3c(=O)[nH]c(C4CCCN(C(=O)C5CCCCC5)C4)nc32)c1 (stereo not given)	-20%
CC(=O)Nc1ccc(OC(=O)c2cccs2)cc1	3%
CCCN(CC(=O)Nc1ccccc1C)C(=O)c1ccc(=O)n(Cc2ccccc2)n1	-9%
C=CCNc1nc(C(=O)OCC(=O)c2ccc(C)c([N+](=O)[O-])c2)cs1	-27%
CCOC(=O)C1CCCN(c2c(C(=O)c3ccc(C)cc3)cnc3ccc(OCC)cc23)C1 (stereo not given)	-11%
N#Cc1c(N2CCCC(O)C2)nc(N)c2c(N)nc3c(c12)CC(=O)N3C12CC3CC(CC(C3)C1)C2 (stereo not given)	?
COc1ccc(C2CC(=O)Nc3c2c(=O)[nH]c2nc4ccccc4n32)cc1OC (stereo not given)	-22%
COc1ccc(OC)c(CNc2c(C=O)c(=O)[nH]c3ccccc23)c1	-6%
O=C(C1CCCN(Cc2cccc(Cl)c2)C1)N1CCCCC1 (stereo not given)	?
Cc1ccc(-c2csc(CC(N)=O)n2)cc1	2%
N#CC(Cc1ccccc1)(Cc1ccccc1)C(=O)NN	-11%
O=C(Nc1ccccc1-c1ccccc1)NC1CC2CCCC(C1)N2CCc1ccccc1 (stereo not given)	-11%
COC(=O)CC1C(C)(C)C(OC(C)=O)C2CC3=C4CC(=O)OC(c5ccoc5)[C@]4(C)CCC3[C@@]1(C)C2=O (stereo not given in full)	?
Cc1cc(NC(=O)CSc2nnc(COc3ccccc3)n2Cc2ccco2)no1	15%
O=Cc1c(NCCc2cccc(F)c2)c2ccccc2[nH]c1=O	-9%
Cc1nc(N2CCNCC2)c2c3c(sc2n1)CCCC3	-1%
Cn1ncc([N+](=O)[O-])c1C(=O)NC1CCCCCC1	-4%
CCOc1ccc(Cl)cc1S(=O)(=O)N1CCC(C(=O)NCc2ccccn2)CC1	-16%
CCc1cccc(NS(=O)(=O)c2ccc3c(c2)N(CC(=O)OC)C(=O)CS3)c1	3%
Cc1cc(F)ccc1S(=O)(=O)Nc1cc2c(C(=O)O)c(C)oc2c2ccccc12	-7%
Cc1cccc(N2CCN(C(=O)c3cnn(-c4ccc(F)cc4F)c3C3CCN(C(=O)OC(C)(C)C)CC3)CC2)c1C	13%
CCc1ccccc1-n1ncc(C(=O)Nc2ccc(OC)cc2)c1C	2%
CC(OC(=O)c1nsc(Cl)c1Cl)C(=O)NCc1cccs1 (stereo not given)	3%
CCOc1ccc(C(=O)Nc2ncccc2Cl)cc1	14%
COc1ccc(OC)c(-n2c(C)cc(/C=C3\C(=N)N4N=C(CC(=O)N5CCOCC5)SC4=NC3=O)c2C)c1	8%
COC(=O)C1=C(COc2ccc(F)cc2)NC(=O)NC1c1ccc(C)cc1C (stereo not given)	11%
CCOC(=O)C1(Cc2ccccc2)CCN(Cc2ccc(COC)o2)CC1	-4%
COc1ccc(S(=O)(=O)CC(=O)c2cc3cccc(C)c3oc2=O)cc1	-25%
O=C(COC(=O)c1ccccc1)NCC1CCCO1 (stereo not given)	9%
O=C(CSc1cc(Cl)ccc1Cl)NCC1CCCO1 (stereo not given)	20%
Cc1nn(C)c(Cl)c1CN1CCC(CO)(CC2CCCCO2)CC1 (stereo not given)	-7%
Cc1cc(NC(=S)N(CCCN2CCN(C)CC2)Cc2ccco2)ccc1Cl	?
COc1cccc(C2=CC(c3cc(Br)ccc3F)n3nnnc3N2)c1 (stereo not given)	-12%
CC(=O)c1ccc(N2CCN(c3ccc(S(=O)(=O)N4CCN(C)CC4)cn3)CC2)cc1	14%
O=C1CNC(=S)N1Cc1ccc(F)cc1	?
COc1cc(OC)c(CN2CCCN(C)CC2)cc1Br	5%
CCn1cc(C(=O)NN)c(=O)c2cc(F)c(NC3CCCCC3)cc21	4%
CCCN(CCC)C(=O)Cn1c(=O)n(-c2ccc(Cl)c(Cl)c2)c(=O)c2c(C)c(C(=O)N(C)C)sc21	7%
O=S(=O)(c1cccc(-c2nc3ccccc3s2)c1)N1CCCC1	-13%
Cc1cc(C)n(-c2ccc(C(=O)OCC(=O)NCc3ccc(F)cc3)cc2)n1	-2%
O=C(Nc1ccc(NC(=O)N2CCN(c3ccccc3O)CC2)cc1)N1CCN(c2ccccc2O)CC1	-11%

Additional structures
Structure | VDR inh
O=c1c(O)c(-c2ccc(O[C@@H]3O[C@H](CO)[C@@H](O)[C@H](O)[C@H]3O)c(O)c2)oc2cc(O)cc(O)c12 | -2%
COc1ccc(CNC(=O)c2ccc(N3CCC4(CC3)CC(c3ccc(Cl)cc3)=NO4)c(NC(=O)c3ccccc3)c2)cc1 | -15%
CCOC(=O)c1cc(CO)cc(C(=O)OCC)c1 | -5%
Cc1noc(C)c1COc1ccc(C(=O)NCCc2ccc(S(N)(=O)=O)cc2)cc1 | 40%[activator]
Brc1ccc(CSc2nnc(Cc3c[nH]c4ccccc34)o2)cc1 | -17%
Fc1cccc(Cl)c1/C=N/n1c(-c2cccnc2)n[nH]c1=S | -18%
Cc1ccc(-c2noc(CCC(=O)N(C)c3ccccc3C)n2)cc1 | 4%
COCc1c(C(=O)OCC(=O)NCCc2ccc(S(N)(=O)=O)cc2)oc2ccccc12 | -3%
CC1CCc2c(sc(NC(=O)c3ccco3)c2C(=O)O)C1 (stereo not given) | -9%
Cc1cc(C)c(C)c(S(=O)(=O)N2CCN(CC(=O)Nc3ccc([N+](=O)[O-])cc3)CC2)c1C | -12%
CCCCn1c(N)c(N(Cc2ccccc2OC)C(=O)COc2ccc(F)cc2Cl)c(=O)[nH]c1=O | -1%
O=C(Nc1ccccc1Cl)c1ccccc1Oc1ccc(C(F)(F)F)cc1[N+](=O)[O-] | -13%
O=C(NCc1ccccc1CN1CCCCC1)c1ccc(Cl)cc1N1CCCC1=O | 22%
COc1ccc(NC(=O)c2ccco2)cc1NC(=O)COc1cc(C)cc(C)c1 | -2%
Cc1ccc(NC(=O)CS(=O)CC(=O)Nc2cccc(C)c2C)cc1F (stereo not given) | 11%

7 entries picked at random from those above:
Structure | VDR inh
COC(=O)CC1C(=O)NCCN1C(=O)c1ccc(Cl)cc1 (stereo not given) | 3%
CCC1(CC)Cc2ccccc2-c2nc(NCCO)[nH]c(=O)c21 | 6%
COc1ccc(S(=O)(=O)CC(=O)c2cc3cccc(C)c3oc2=O)cc1 | -25%
COc1ccc(C(=O)N/N=C(/C)c2ccc(N3CCCCC3)cc2)cc1 | ?
c1coc(CNc2c3c(nc4ccccc24)CCC3)c1 | 3%
Cc1ccc(OCC(=O)N(Cc2ccc(Cl)cc2)Cc2ccco2)cc1C | -3%
O=C(Nc1ccccc1Cl)c1ccccc1Oc1ccc(C(F)(F)F)cc1[N+](=O)[O-] | -13%

Continuation:
Structure | VDR inh
Cc1ccc(C)c(NC(=O)c2nc(-c3ccccc3)n(-c3ccccc3)n2)c1 | 1%
CCCn1nnnc1SCC(=O)N1CCCc2ccccc21 | -17%
c1cc2nnnn2nc1N1CCCCC1 | 0%
O=C1CCCN1CCC1CCCCN1Cc1nc(COc2ccccc2)no1 (stereo not given) | 0%
CNC(=O)Nc1cccc(NC(=O)NC)n1 | -9%
CCn1c(CSc2nc3ccccc3s2)n[nH]c1=S | 10%
Cc1c(-n2c(SCC(=O)NC(C)C(C)C)nc3ccccc3c2=O)c(=O)n(-c2ccccc2)n1C (stereo not given) | 17%
O=C1C2CCCN2c2ccc(S(=O)(=O)N3CCOCC3)cc2N1Cc1ccccc1F (stereo not given) | -15%
O=C(c1cccs1)N(c1ccc(Br)cc1)C1C=CS(=O)(=O)C1 (stereo not given) | 37%[activator]
COC(=O)C1CCN(C(=O)C(C)Oc2ccc(Cl)cc2Cl)CC1 (stereo not given) | 7%
Cc1ncc([N+](=O)[O-])n1CC(=O)Nc1ccc(F)cc1F | -12%
CC1CN(C(C)C(=O)NNC(=O)c2ccc(F)cc2)CC(C)O1 (stereo not given) | 15%
CCC(Sc1nnc(C)s1)C(=O)Nc1nccs1 (stereo not given) | 2%
Cc1ccnc(SCC(=O)N2CCN(c3cccc(Cl)c3)CC2)n1 | 8%
COc1ccc(CCC(=O)Nc2cccc(S(=O)(=O)N3CCCC3)c2)cc1OC | -12%
COC(=O)Nc1nnc(-c2ccc(OC)cc2)s1 | 4%
COc1ccc(Nc2oc(COc3ccc(OC)cc3)nc2C#N)cc1 | 1%
Cc1c2ccccc2nc2c(F)c(N(C)C)c(F)c(F)c12 | -20%
COc1cccc(C(=O)Nc2cccc(NC(=O)c3ccc(Cl)cc3Cl)c2)c1 | -19%
Cc1ccnc(NC(=O)CCC(=O)N(CC(=O)NC(C)(C)C)c2ccc3c(c2)OCCO3)c1 | -5%
CCCn1ccc(O)c(Cc2ccc(Cl)cc2)c1=O | -3%
O=C(Nc1nc(-c2ccccn2)cs1)C1CC1 | 0%
CNC(=O)CC(CC(=O)c1ccccc1)c1ccccc1 (stereo not given) | -8%
COc1ccc(C(=O)C2CCN(C(=O)c3ccc(C)cc3)CC2)cc1 | -3%
O=C1NC[C@H](c2ccccc2)OC(=O)[C@H](Cc2ccc(F)cc2)CC/C=C/C[C@@H]1CC(=O)N(CCO)Cc1ccccc1 | 5%
O=C(C1CCC1)N1CCN(S(=O)(=O)c2cc(F)ccc2F)CC1 | -25%
CCOC(=O)C1=C(C)N=c2s/c(=C\c3cc(OC)c(OC)c(OC)c3)c(=O)n2C1/C=C/c1ccccc1 (stereo not given) | ?
Cc1cc(=O)oc(C)c1C(=O)OCC(=O)c1ccccc1 | 19%
CC(C)Cc1nnc(NC(=O)CCc2ccccc2)s1 | ?
COc1ccccc1NC(=O)CCNC(=O)c1ccc(C)cc1 | -2%
CC1(C)CC(=O)C=C(NC2CCCCCCC2)C1 | -8%
COCCNC(=O)Cc1c(C)c2cc3c(cc2oc1=O)OC(C)(C)CC3 | -5%
COc1ccccc1C(=O)NC(C)c1ccc(-n2ccnc2)cc1 (stereo not given) | -12%
CC(=O)NC(Cc1c[nH]c2ccccc12)C(=O)NCc1ccco1 (stereo not given) | 27%
CSc1nc2ccc(NS(=O)(=O)c3ccc([N+](=O)[O-])cc3)cc2s1 | ?
